RanGTP-Imp inh = disruptors of Ran-importin-beta complex formation – biochemical, FRET, CFP-Ran, YFP-importin-beta, homogeneous, primary screen. cell-free CFP-Ran/YFP-importin-beta FRET ratio. inhibition, % (concentration not given with the values). 300,000 compounds, 1.1% hits;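 active means most replicates above 15%; inconclusive means exactly half above 15%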;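 further: 0% = DMSO wells and 100% = Ran loaded with GDP instead of GTP; wells of about 40 µL received 100 nL stock; the first replicate is given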
Beta cell apopt = beta cell apoptosis inhibition; INS-1E cytokine-induced death, ATP luminescence, 48 h; percent of positive-control rescue, neutral wells zero; 300,000 compounds, 0.8% hits; protection from apoptosis, % (concentration not given with the values);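 active means all replicates at 75% or more, or half of them and the mean; inconclusive means half reach 75% but not the mean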;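 further: 0% = cytokine-treated negative control wells and 100% = positive control rescue; higher means more ATP so stronger rescue from cytokine killing; wells of about 40 µL received 100 nL stock; the first replicate is given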
FGF22 binding = binders of recombinant human FGF22 by thermal shift | Q9HCT0 | SYPRO orange fluorescence; percent of sucrose octasulfate shift, DMSO zero | calls only at 9.99 µM | 340,000 compounds, 1.5% hits;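 active means melting point raised past a set limit in the mean and every replicate; inconclusive means no clear call; three in four hits are not shown here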
Target sequence (Q9HCT0 whole entry, looked up): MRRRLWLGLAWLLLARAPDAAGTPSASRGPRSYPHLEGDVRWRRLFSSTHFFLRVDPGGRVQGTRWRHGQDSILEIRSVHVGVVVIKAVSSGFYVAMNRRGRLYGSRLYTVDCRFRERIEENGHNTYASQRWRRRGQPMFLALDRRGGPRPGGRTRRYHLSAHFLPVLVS
T cruzi repl = blocks replication of Trypanosoma cruzi | T. cruzi beta-gal in NIH3T3, luminescence, 90 h | inhibition, % (concentration not given with the values) | 300,000 compounds, 1.4% hits | AID 1885;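 active means mean inhibition across valid replicates above about 55%, limit read from the data; inconclusive means mean below that limit but half or more replicates reach it; inactive means mean below it, under half of replicates reach it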;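 further: signal also drops with host cell toxicity which is not excluded here; 0% = plate median of DMSO wells and 100% = zero luminescence signal; higher percent means less beta-gal luminescence so fewer parasites; stock transfer was 50 nL into about 50 µL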
ALR inh = inhibitors of human sulfhydryl oxidase ALR. AID 485317. 290,000 compounds, 3.8% hits. inhibition, % (no concentration beside the values). purified ALR, DTT oxidation, H2O2 HRP-luminol luminescence;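 active means mean and each replicate at 75% or more; inconclusive means only one of the two met; inactive means neither met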;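 further: stock transfer was 7.5 nL into about 7.5 µL; 0% = neutral wells and 100% = wells with inactivated enzyme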
Target sequence (P55789 whole entry, looked up): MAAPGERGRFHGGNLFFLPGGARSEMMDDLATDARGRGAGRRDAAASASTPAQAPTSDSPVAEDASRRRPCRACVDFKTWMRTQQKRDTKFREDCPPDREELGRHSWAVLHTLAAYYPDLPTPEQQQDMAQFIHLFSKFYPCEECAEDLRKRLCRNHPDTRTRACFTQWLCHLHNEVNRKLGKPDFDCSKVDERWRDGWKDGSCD
MLL AF4-AF9 inh = inhibitors of human MLL-AF4/AF9 interaction; P42568; AlphaScreen, biotin-AF4 peptide binding to FLAG-AF9; inhibition, % at 10 µM; 350,000 compounds, 0.47% hits;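 active means every replicate reaching a set inhibition limit, whatever the replicate mean, cut at about 25% in these data; inconclusive means mean inhibition reaches that limit but some replicates miss it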;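 further: 0% = plate neutral control median and 100% = total signal loss; the record names both 10 and 1 µM as test concentration; the first replicate is given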
Target sequence (P42568 whole entry, looked up): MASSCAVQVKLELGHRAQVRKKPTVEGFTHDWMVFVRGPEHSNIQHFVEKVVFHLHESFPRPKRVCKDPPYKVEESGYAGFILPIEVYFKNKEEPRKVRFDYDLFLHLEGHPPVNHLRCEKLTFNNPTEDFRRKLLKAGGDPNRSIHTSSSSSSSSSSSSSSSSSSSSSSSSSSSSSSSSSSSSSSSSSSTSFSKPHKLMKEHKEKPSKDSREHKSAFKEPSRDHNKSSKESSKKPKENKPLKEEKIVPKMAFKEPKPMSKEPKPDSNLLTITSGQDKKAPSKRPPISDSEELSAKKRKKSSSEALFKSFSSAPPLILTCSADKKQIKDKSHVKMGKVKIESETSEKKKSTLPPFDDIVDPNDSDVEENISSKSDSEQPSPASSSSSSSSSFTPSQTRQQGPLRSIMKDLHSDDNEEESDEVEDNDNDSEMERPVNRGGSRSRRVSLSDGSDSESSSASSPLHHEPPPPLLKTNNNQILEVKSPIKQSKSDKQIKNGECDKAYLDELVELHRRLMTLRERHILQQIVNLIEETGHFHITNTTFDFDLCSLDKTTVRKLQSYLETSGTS
rRNA inh HTS = inhibitors of bacterial rRNA selective over humanized ribosomes | 350,000 compounds, 1.6% hits | GFP signal change (wild-type ribosome), % (test concentration not listed) | E. coli WT GFP vs humanized-ribosome RFP mutants, fluorescence, 24 h; active compounds read low; DMSO median 0, no signal -100 | AID 720706;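 active means significant combined selectivity score with lowered wild-type GFP, culture density cut under 30%, mutant RFP and density less affected; inactive means any of these conditions unmet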; further: one replicate is shown; some compounds called inactive have numbers as strong as hits
Calb FLC = C. albicans growth modulation with fluconazole | growth inhibition, % (test concentration not listed) | 300,000 compounds, 0.57% hits | C. albicans CaCi-2 (fluconazole-resistant clinical isolate) + fluconazole, Alamar Blue growth, 48 h;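 active means most replicates above 75%; inconclusive means exactly half above 75%; inactive means most below 75%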;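 further: all wells also contain fluconazole at 8 µg/ml as a sub-toxic cotreatment; 0% = median of DMSO wells and 100% = median of geldanamycin control wells; wells of about 8 µL received 7.5 nL stock; the first replicate is given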
rRNA inh HTS OD600 = also measured in rRNA inh HTS; calls as there; OD600 change, %; measured here: OD600 growth;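 optical density of the mix in the first replicate; 0 = DMSO median and -100 = no signal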
rRNA inh HTS RFP = also measured in rRNA inh HTS; calls as there; RFP signal change, %; measured here: RFP humanized mutant strains;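 first replicate; 0 = DMSO median and -100 = no signal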
The depositor's hits bear a star; i = inactive; ? = inconclusive; . = not tested or not shown. A portion of the library; the hit share may differ from the screen's.

SMILES	RanGTP-Imp inh	Beta cell apopt	FGF22 binding	T cruzi repl	ALR inh	MLL AF4-AF9 inh	rRNA inh HTS	rRNA inh HTS OD600	rRNA inh HTS RFP	Calb FLC
Cc1cccc(N2C(=S)NC3c4ccccc4OC2(C)C3C(=O)N(C)C)c1 (stereo not drawn)	-1.1	0.9	i	-4.6	-18.4	-1.6	-6.5	-1.3	-1.6	-1.3
Nc1nc2n(n1)C(c1c(F)cccc1Cl)CC(c1ccc(F)cc1)N2 (stereo not drawn)	6.1	2.8	i	27.7	6.7	4.4	-3.2	-15.1	2.9	0.5
COc1ccc(-c2c(-c3cc(OC)cc(OC)c3)n(C)c3ccc(Br)cc23)cc1	.	6.5	i	.	0.8	1.8	1.1	10.1	-0.6	.
O=C(NNC(=O)c1ccccc1-c1ccccc1C(=O)O)c1ccccc1	-2.4	3.0	i	-18.7	-13.9	-0.2	15.8	7.1	-0.9	9.2
Cc1cccc(NC(=O)CSCC(=O)Nc2cc(S(=O)(=O)N3CCOCC3)ccc2N2CCCC2)c1	-0.4	-7.3	i	8.2	-9.2	1.1	-1.0	-2.3	-1.6	0.0
CN(C(=O)COc1ccccc1)C1CCS(=O)(=O)C1 (stereo not drawn)	4.1	0.7	i	-25.9	?	-1.8	0.4	5.8	-2.9	-0.6
CC1(C)Oc2ccc(C(=O)NC3CCCCC3)cc2N(CC#N)C1=O	-1.7	.	i	0.5	12.6	-8.8	4.0	3.0	-1.6	1.8
CCOC(=O)c1c(C)[nH]c(C)c1C(=O)COC(=O)CNC(=O)c1ccc(OCC)cc1	8.5	-30.8	.	11.3	4.4	.	.	.	.	-4.6
Cc1ccc(S(=O)(=O)N2CCN(C(=O)COC(=O)COc3cccc(C(F)(F)F)c3)CC2)c(C)c1	.	-2.7	i	.	2.1	-2.6	6.4	0.9	1.6	.
COc1ccccc1OCC(=O)N(Cc1nnc(-c2ccccc2Cl)o1)C1CC1	-6.4	1.4	i	19.8	-13.1	0.2	-3.0	-8.0	0.1	-3.1

At a glance, 2 of the compounds above:
SMILES	RanGTP-Imp inh	Beta cell apopt	FGF22 binding	T cruzi repl	ALR inh	MLL AF4-AF9 inh	rRNA inh HTS	rRNA inh HTS OD600	rRNA inh HTS RFP	Calb FLC
Cc1ccc(S(=O)(=O)N2CCN(C(=O)COC(=O)COc3cccc(C(F)(F)F)c3)CC2)c(C)c1	.	-2.7	i	.	2.1	-2.6	6.4	0.9	1.6	.
COc1ccccc1OCC(=O)N(Cc1nnc(-c2ccccc2Cl)o1)C1CC1	-6.4	1.4	i	19.8	-13.1	0.2	-3.0	-8.0	0.1	-3.1

Additional records follow.
SMILES	RanGTP-Imp inh	Beta cell apopt	FGF22 binding	T cruzi repl	ALR inh	MLL AF4-AF9 inh	rRNA inh HTS	rRNA inh HTS OD600	rRNA inh HTS RFP	Calb FLC
NS(=O)(=O)c1ccc(CNC(=O)Cc2c(F)cccc2Cl)cc1	?	8.0	.	5.4	-5.0	-0.9	14.1	9.0	-0.5	-1.9
N#Cc1c(N)sc2c1CCN(C(=O)OCc1ccccc1)C2	8.9	3.6	i	0.6	-3.2	-70.0	-5.5	4.1	19.3	4.0
CN(C)c1cccc(C(=O)OCC(=O)NC(=O)NCc2ccccc2)c1	.	-4.5	.	.	-4.9	4.5	-5.9	-1.1	-0.1	.
CN1CCc2ccc(NC(=O)c3ccc(C(F)(F)F)cc3)cc2C1	3.2	.	i	29.8	.	1.6	-9.9	-12.9	0.1	-3.2
CCCSc1nnc(-c2c[nH]c3ccccc23)n1C	-2.8	0.0	i	3.1	-1.0	-9.3	-9.0	-0.9	-7.1	7.3
CC(=O)Nc1ccc2nc(SCC(=O)N3CCOCC3)sc2c1	-3.1	-7.3	.	4.9	-35.2	-1.6	6.4	3.3	0.5	13.1
CCN(CC)Cc1c(C(=O)OC(C)C)nnn1-c1nonc1N	0.1	-1.1	.	-1.8	-1.1	.	.	.	.	3.6
O=C(N/N=C/c1cccnc1)c1cccs1	-0.8	3.0	i	-8.2	2.9	.	7.8	8.4	0.0	28.2
Cc1ccc(C(=O)CSc2nnc(CNc3ccc(C)cc3C)o2)cc1	1.1	0.7	.	1.7	8.3	.	.	.	.	5.3
CC(C)NC(=O)c1cc2c(=O)n3ccccc3nc2s1	0.0	-1.3	i	-6.6	53.1	-2.5	-41.4	-60.2	-8.7	-5.1
Cc1cc(C(=O)CSc2nnnn2C)c(C)n1Cc1ccco1	-1.5	-1.3	.	-19.2	-0.1	-10.0	3.2	-1.6	1.2	0.6
CCOC(=O)c1ccc(NC(=O)C2CC(=O)Nc3nc4ccccc4n32)cc1 (stereo not drawn)	-2.1	-0.5	.	4.3	-10.3	-7.8	8.0	11.3	1.9	12.8
Cc1ccc(S(=O)(=O)NC(=O)COc2ccc([N+](=O)[O-])cc2)cc1	4.4	-1.2	i	-7.4	-5.0	0.3	15.6	8.1	1.0	4.8
CCN(CC)S(=O)(=O)c1cccc(C(=O)OCC(=O)C23CC4CC(CC(C4)C2)C3)c1	0.8	-5.4	.	33.9	5.0	.	.	.	.	-10.5
Cc1cc(C)cc(OCC(=O)Nc2cccc(-c3nnc(-c4ccco4)o3)c2)c1	7.7	-2.3	.	-9.5	-3.3	.	.	.	.	29.4
CCC(C)/C(C)=N/NC(=O)c1ccccc1OCCOc1ccccc1 (stereo not drawn)	1.8	-4.7	i	3.6	4.5	-3.6	4.8	1.6	3.5	0.7
COc1ccc(C(=O)N2CCC(n3c(C)nc4cc(F)ccc43)CC2)cc1	0.2	-8.1	i	2.2	.	-0.8	6.7	-2.5	-1.8	10.7
COc1ccc(C(=O)NC2CC2)cc1OC1CCN(Cc2ccc(F)cc2)CC1	-3.0	-0.5	i	9.1	-4.4	-3.1	13.0	7.6	8.3	-21.6
CC(=O)c1ccc(NC(=O)Cc2ccsc2)cc1	5.9	-2.0	i	-7.0	-2.7	-18.9	3.8	11.2	-2.0	-3.7
COc1ccc(/C=c2\s/c(=C(/C#N)C(=O)NCc3ccco3)n(-c3ccccc3)c2=O)cc1	82.9*	6.2	i	-4.3	32.5	-0.1	4.8	16.8	3.5	-2.4
COc1cc(C(=O)NNC(=O)c2ccccc2Br)ccc1OCC(=O)N1CCOCC1	0.8	-1.5	i	-2.7	2.5	0.9	9.1	10.6	4.0	1.2
CCCC(c1nnnn1CC1CCCO1)N1CCN(c2cc(Cl)ccc2C)CC1 (stereo not drawn)	1.2	2.6	.	36.9	-21.8	.	.	.	.	15.9
COc1cc(NC(=O)C2CCCN(S(=O)(=O)c3ccc4c(c3)CCCN4C(C)=O)C2)cc(OC)c1 (stereo not drawn)	2.9	-1.8	i	21.0	-2.6	1.9	-3.4	-9.5	2.5	-5.9
CC1=CCC2(CO)COC(c3ccccc3O)C1C2 (stereo not drawn)	4.0	1.4	.	-3.9	20.3	.	.	.	.	2.9
COC(=O)c1ccc(COC(=O)C2CCN(S(=O)(=O)c3c(Cl)cccc3Cl)CC2)o1	-0.6	-2.3	i	-2.6	-3.7	?	0.5	8.3	-2.3	2.2
CCOC(=O)C1=C(C)NC(=O)NC1c1c(C)nn(-c2ccccc2)c1Cl (stereo not drawn)	-0.4	-28.6	.	.	12.9	.	.	.	.	8.2
COc1ccc(-c2cc(C(F)(F)F)n3nc(C)cc3n2)cc1	-4.2	5.2	i	-4.9	2.0	-5.8	-4.0	-4.7	-2.6	15.2
CCOC(=O)C1=C(NC(=O)c2ccc(Br)o2)Nc2ccccc2N=C1	0.8	-8.0	.	-9.7	-7.6	.	.	.	.	9.2
COC(=O)c1cnn(C(=O)c2ccccc2Br)c1N	5.8	1.6	.	-1.8	-1.3	.	.	.	.	-11.5
O=C(NCc1ccc(F)cc1)c1ccc[nH]1	2.7	-0.3	i	-4.3	-6.3	0.3	6.8	16.6	-1.8	-12.2
Cc1c(C(=O)N2CCOCC2)c(S(=O)(=O)Nc2ccc(F)cc2)c(C)n1C	-1.2	-2.6	i	-11.7	1.8	-5.2	8.6	22.9	-1.8	6.2
CC(=O)c1cccc(Nc2nc(-c3cccnc3)cs2)c1	-2.3	.	i	33.4	1.7	0.2	3.9	0.9	-1.7	2.5
CC(C)(C)NC(=O)c1cc(-c2ccccc2)n[nH]1	2.2	-0.7	i	-3.4	1.0	-0.8	6.1	-0.6	-1.1	-21.5
COc1ccc(CN(C)c2ncnc(N)n2)cc1	-2.2	-6.4	.	-18.6	-21.2	.	.	.	.	-3.0
COc1ccc(Nc2nccc3c2ncn3C)cc1	3.5	.	i	-18.4	50.5	.	9.1	9.2	5.1	20.6
CC(C)NC(=O)c1onc(CSc2cccc(F)c2)c1C(=O)O	2.5	-3.0	i	-0.5	13.5	-6.3	-0.1	8.6	4.0	-5.3
CCc1cccc(C)c1NC(=O)COC(=O)c1ccc2c(c1)S(=O)(=O)c1ccccc1C2=O	0.9	-5.5	i	-8.5	-1.6	3.3	-0.9	10.9	0.1	2.2
CCOC(=O)CNS(=O)(=O)c1cc(-c2nn(C)c(=O)c3ccccc23)ccc1C	-3.1	2.3	.	6.8	2.5	.	.	.	.	1.1
Cc1ccc2oc(-c3cccc(NC(=S)NC(=O)/C=C/c4ccco4)c3)nc2c1	1.9	0.0	.	-32.0	.	.	.	.	.	4.2
CCCCCCC(=O)N=Nc1c(O)[nH]c2ccc([N+](=O)[O-])cc12	?	4.4	i	0.6	-5.4	4.1	4.8	14.8	14.5	-6.5
O=C(/C=C/c1ccc([N+](=O)[O-])cc1)NNC(=O)C1CC1	0.9	-0.4	i	3.9	30.4	-1.2	38.9	30.2	2.2	20.1
COc1ccc(N2CCN(Cc3cc(=O)oc4ccc5ccccc5c34)CC2)cc1	5.1	11.9	.	30.6	1.1	.	.	.	.	-23.8
CCC(Sc1nc2ccncc2[nH]1)C(=O)Nc1cc(Cl)ccc1C (stereo not drawn)	-1.5	-8.1	i	-11.5	.	-2.1	-2.9	-21.7	-6.4	-0.5
COc1ccc(C(=O)c2ccc(OC)c3cccc(O)c23)cc1OC	-0.1	-4.9	.	4.6	-11.1	.	.	.	.	3.1
COc1ccc(CC(=O)NCCN2CCCC2)cc1	-0.5	-5.0	.	0.6	-13.0	.	.	.	.	2.9
CCOC(=O)c1cc(C#N)c(SCc2ccc(C#N)cc2)nc1C	4.3	6.8	.	-13.2	.	.	.	.	.	9.0
CCCC1CCC(C2=N/C(=C\c3ccc(OC)c(OC)c3)C(=O)O2)CC1 (stereo not drawn)	3.3	-8.1	.	-5.8	-13.2	.	.	.	.	-0.1
COc1cc(/C=C(\C#N)c2nc3c(s2)CCCC3)ccc1O	-47.2	1.5	.	-7.0	.	.	.	.	.	38.0
CCOC(=O)c1c(NC(=O)COc2ncnc3ccccc23)sc(C)c1CC	7.0	8.1	.	31.4	3.7	.	.	.	.	-6.9
CCCCC1=CC2=CC(=O)C(C)(OC(=O)CC)C(=O)C2=CN1CCN1CCOCC1 (stereo not drawn)	5.3	5.6	.	5.6	-39.8	.	.	.	.	17.0
O=C(C1CCN(C2CCN(C/C(Cl)=C/c3ccccc3)CC2)CC1)N1CCOCC1	-1.6	-1.2	i	9.7	-9.3	6.8	11.4	6.9	-4.6	-35.9
CCc1ccc(OCCNC(=O)c2ccc(S(=O)(=O)N(C)C)cc2)cc1	?	-0.4	.	6.4	-16.7	.	.	.	.	3.8
